# Source: PubChem BioAssay
# Mtb betalactam: beta-lactam sensitization of Mtb H37Rv, H37Rv | M. tuberculosis H37Rv growth with meropenem, percent inhibition; hits of this screen are not shown here | inhibition, % at 25 µM | 330,000 compounds, 0.27% hits;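 active means about 74% or more and at least 40 points above the plate without the antibiotic, then above 30% in a dose series; inconclusive means first-round hits that could not be retested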;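 further: growth measured after seven days incubation then overnight dye step; 0% = bacteria only wells and 100% = bacteria with antibiotic; twin plates without the antibiotic show which effects depend on it; some results filed as inactive read as strong as hits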
# Mtb H37Rv: M. tuberculosis H37Rv growth inhibitors, H37Rv strain (AID 1626); 220,000 compounds, 0.95% hits; M. tuberculosis H37Rv growth inhibition; higher % means a stronger effect; inhibition, % at 10 µM, or IC50 in µM where a hit was titrated;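 active means confirmed in a dose series; inconclusive means inhibition above 80% but not taken into the dose series; inactive means below 80% or under 30% at every dose of the series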;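 further: bacteria incubated seven days before Alamar blue readout; 0% = bacteria only wells and 100% = bacteria with antibiotic wells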
# YopH PTP inh: YopH tyrosine phosphatase inhibitors, primary screen, biochemical, fluorescence Ex485/Em525; inhibition, %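 (about 10 µM by stock and volumes)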; 140,000 compounds, 0.16% hits; AID 898, 2007;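 active means inhibition of 50% or more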;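 further: controls were vehicle for no effect and minimum signal wells for full effect; inactives centre near -20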
# RecA intein inh: Mtb RecA intein splicing inhibitors, primary screen, biochemical, fluorescence, HTS; Protein RecA (Mycobacterium tuberculosis (strain ATCC 25618 / H37Rv)), P9WHJ3; cell-free RecA intein splicing; inhibition, %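 (about 9 µM by stock and volumes)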; 290,000 compounds, 0.75% hits; in the data active means inhibition above about 30%; inconclusive means no clear call, values can overlap the other calls;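 further: 0% = vehicle wells and 100% = reference inhibitor control wells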
# Target sequence (P9WHJ3 whole entry, looked up): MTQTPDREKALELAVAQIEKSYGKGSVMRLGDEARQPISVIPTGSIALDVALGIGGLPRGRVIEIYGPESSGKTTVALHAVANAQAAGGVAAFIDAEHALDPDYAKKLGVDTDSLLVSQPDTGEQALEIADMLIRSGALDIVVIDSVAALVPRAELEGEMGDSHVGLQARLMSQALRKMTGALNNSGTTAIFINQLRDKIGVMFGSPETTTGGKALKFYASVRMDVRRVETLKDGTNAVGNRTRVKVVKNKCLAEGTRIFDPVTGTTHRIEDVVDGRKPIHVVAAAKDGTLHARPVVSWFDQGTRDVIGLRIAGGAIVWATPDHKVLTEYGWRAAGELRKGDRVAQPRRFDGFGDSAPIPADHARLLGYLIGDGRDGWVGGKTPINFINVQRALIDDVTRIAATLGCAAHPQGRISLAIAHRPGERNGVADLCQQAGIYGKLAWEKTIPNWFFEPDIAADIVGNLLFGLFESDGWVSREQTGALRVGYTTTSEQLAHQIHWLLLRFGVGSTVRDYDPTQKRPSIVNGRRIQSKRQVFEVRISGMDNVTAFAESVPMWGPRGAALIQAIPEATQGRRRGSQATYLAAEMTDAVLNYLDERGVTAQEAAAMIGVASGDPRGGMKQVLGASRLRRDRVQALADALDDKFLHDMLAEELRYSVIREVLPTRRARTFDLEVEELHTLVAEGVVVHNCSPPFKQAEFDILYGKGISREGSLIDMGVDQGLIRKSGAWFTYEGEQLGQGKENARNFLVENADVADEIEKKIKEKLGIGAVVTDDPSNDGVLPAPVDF
# Arbovirus inh: antivirals against arbovirus infection, primary screen, cell-based, full library, 10K replicate subset; arbovirus infection cell-based antiviral screen; inhibition, % at 10 µM; 200,000 compounds, 0.37% hits; AID 1251, 2008;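 active means inhibition from about 30%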;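 further: bluetongue infection of BSR cells; cell survival read as ATP light after 72 h; 0% = infected wells without compound and 100% = uninfected wells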
# Arbovirus inh repeat: also measured in Arbovirus inh; calls as there; inhibition, %; measured here: 10K subset replicate screen; many hits read low in the repeat;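 first of two repeat runs on a subset; 0% = infected and 100% = uninfected wells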
# * hit, by the source's call; ? = inconclusive; nt = no result given. Only part of the results is shown, so the mix of outcomes need not match the whole.
SMILES,Mtb betalactam,Mtb H37Rv,YopH PTP inh,RecA intein inh,Arbovirus inh,others
CCn1c(-c2ccoc2C)n[nH]c1=S,-7,2%,-42,-4.2,2,
CCOC(=O)c1c(NC(=S)Nc2cccnc2)sc(C)c1C,2,-6%,nt,-1.3,1,
COc1ccc(/C(=N/Nc2ncnc3ccccc23)C(=O)O)cc1,-8,nt,nt,-3.3,nt,
COc1cc(/C=N/NC(=O)CC2(C)OCCCO2)ccc1OCc1ccccc1,-4,6%,-28,39*,2,
COc1ccccc1NC(=O)c1nn(C)cc1Br,-1,4%,22,3.8,-1,
COc1cc(OC)c(OC)cc1CN1CCN(C(=O)CC(C)C)CC1,2,nt,nt,0.0,nt,
Cc1nc(-c2ccc(F)cc2)c(CC(=O)N2CCN(S(=O)(=O)c3cccc(Cl)c3)CC2)s1,0,nt,nt,3.8,nt,
CSc1ccc(C#N)cc1NC(=O)c1ccc(Cl)cc1,-8,11%,-36,-0.8,-3,
CC(=O)c1cc2c(cc1NC(=O)CCc1ccccc1)OCO2,-3,2%,-19,0.3,10,
CSc1ccc(/C=C(\C#N)C(=O)Nc2cccc(C)c2)cc1,4,9%,-11,-8.5,8,
CCOc1ncccc1C(=O)N(C)CC(=O)Nc1ccccc1SC,-7,5%,-30,4.3,3,
O=C(NCc1ccc2c(c1)OCO2)C(=O)NCC1OCCN1S(=O)(=O)c1ccc(F)cc1 (configuration not stated),-15,nt,nt,1.6,nt,
Cc1ccc(SC(=O)COc2ccc(C)c(C)c2)cc1,6,-4%,-7,24,-13,
CC1(C)CC(=O)C(C=NCCc2ccc(S(N)(=O)=O)cc2)=C(O)C1,5,-6%,-3,-1.9,1,
CC1S/C(=C(\C#N)C(N)=O)N(c2ccc(F)cc2)C1=O (configuration not stated),3,-5%,-33,1.4,6,
C/C(=N\NC(=O)c1ccc(CN2CCOCC2)cc1)c1ccc([N+](=O)[O-])cc1,4,0%,-24,-1.4,8,
CCCCCOc1ccc(C(=O)Nc2ccc(S(=O)(=O)Nc3cc(C)on3)cc2)cc1,2,nt,nt,-1.8,nt,
O=C1NC(=O)C(=Cc2ccc(N3CCN(C(=O)c4ccccc4)CC3)c([N+](=O)[O-])c2)C(=O)N1,6,4%,nt,2.2,2,
O=C(Cc1ccccc1)Nc1nnc(-c2ccccc2)o1,65,nt,nt,-1.5,nt,
Cn1c(=O)[nH]c(=O)c2c1nc(CN1CCN(c3cccc(Cl)c3)CC1)n2CCN1CCOCC1,-1,-1%,7,-6.0,-1,
CCCNC(=O)c1ccc(N2CCC3(CC2)CC(c2ccccc2)=NO3)c(NC(=O)c2cccc(OC)c2)c1,-1,nt,nt,0.2,nt,
CC(=O)Nc1ccc(S(=O)(=O)N(C)c2ccc(OCC(=O)OCC(=O)N3CCCCC3)cc2)cc1,-2,-12%,nt,1.1,6,
Cc1ccc(-n2c(SCC(=O)NC3CCS(=O)(=O)C3)nc3ccccc3c2=O)cc1 (configuration not stated),-1,-1%,nt,-0.7,16,
CCN1CCN(c2c(Cl)cccc2NC(=O)c2ccc([N+](=O)[O-])cc2)CC1,2,6%,nt,1.8,1,
CC(=O)c1ccc(N(C(=O)c2ccco2)C(C(=O)NC2CCCC2)c2ccc(N3CCOCC3)cc2)cc1 (configuration not stated),2,10%,nt,-1.6,-1,
# Later entries.
SMILES,Mtb betalactam,Mtb H37Rv,YopH PTP inh,RecA intein inh,Arbovirus inh,others
Cc1cccnc1Sc1c([N+](=O)[O-])ncn1C,11,12%,0,nt,2,
Cc1c(C)c2cc(Cl)c(OCC(=O)N3CCN(c4ccc(F)cc4)CC3)cc2oc1=O,-4,nt,nt,-2.7,nt,
COc1ccc(N2C(=O)[C@@H]3[C@H](C2=O)[C@H]2c4ccccc4C=CN2[C@@H]3C(=O)Nc2ccccc2)cc1,-2,-5%,5,nt,-3,
CCOC(=O)c1c(NC(=O)CC)sc2c1CCN(Cc1ccccc1)C2,13,nt,nt,-13,nt,
Cc1cc(C)cc(C(=O)Nc2ccc3[nH]c(=O)[nH]c3c2)c1,0,2%,nt,-3.6,-1,
COC(=O)c1c(NC(=O)CN2CCC3(O)CCCCC3C2c2ccc(OC)cc2OC)sc(C)c1C (configuration not stated),49,12%,16,8.0,-7,
O=c1c([N+](=O)[O-])c(NCCN2CCCCCC2)c2ccccc2n1-c1ccccc1,-4,12%,-8,-0.4,-5,
COc1ccc(N2C(=O)C(CN3CCCCC3)C2c2ccccc2)cc1 (configuration not stated),-3,-10%,nt,1.2,-4,
COc1ccc(C2c3sc(=O)[nH]c3SC3C(=O)N(c4ccccc4)C(=O)C32)cc1 (configuration not stated),-8,-3%,-24,-1.0,5,Arbovirus inh repeat=3
COC(=O)c1cc(NS(=O)(=O)c2ccc3c(c2)CCC(=O)N3)cc(C(=O)OC)c1,-4,-5%,-16,-0.9,-6,
O=C(NCc1ccc(Cl)cc1)c1cc(S(=O)(=O)N2CCCCC2)c[nH]1,8,nt,nt,5.9,nt,
NS(=O)(=O)c1ccc(N2CCNCC2)cc1,3,4%,nt,-5.6,8,
CC1(C)Cc2c(c(N3CCOCC3)nc3sc4c(NN)ncnc4c23)CS1,10,0%,-15,nt,-15,
COc1ccc(Cl)cc1-c1nc(N)nc(N(C)C)n1,-7,-5%,-10,-1.5,-4,
O=C(NCCS(=O)(=O)N1CCN(c2ccccc2)CC1)c1ccc(Br)o1,-5,nt,nt,2.1,nt,
CCOC(=O)c1sc2nc(C3CC3)cc(-c3ccc(F)cc3)c2c1N,12,-2%,-1,-77,5,
C=C1CCN(C(C(=O)OC)C(C)C)S(=O)(=O)c2ccccc21 (configuration not stated),-17,-4%,nt,-1.8,nt,
COCCn1nnnc1C(c1cc2cccc(C)c2[nH]c1=O)N1CCN(c2ccccc2F)CC1 (configuration not stated),3,-1%,-26,-4.0,1,
Cc1cc(C(=O)CCl)c(C)n1CCc1ccccc1,98,66%,nt,40*,-33,
COC(=O)c1cc(OC)c(OC)cc1NC(=O)c1cnccn1,nt,5%,3,-0.7,0,
O=C(CCNC(=O)c1ccc(Br)cc1)NCc1ccncc1,4,nt,nt,0.0,nt,
O=C(NCc1n[nH]c(=S)n1-c1ccccc1)c1cccs1,-9,1%,nt,-1.1,4,
CC1CCCN(Cc2nc(Cc3ccccc3Cl)no2)C1 (configuration not stated),-2,12%,nt,0.4,2,
CCOc1ccccc1N1CC(C(=O)Nc2ccc3c(c2)OCCO3)CC1=O (configuration not stated),-7,0%,nt,0.5,8,
COC(OC)c1ccnc(-c2ccc(OC(C)=O)cc2)n1,-5,-12%,nt,nt,7,
# The list goes on:
SMILES,Mtb betalactam,Mtb H37Rv,YopH PTP inh,RecA intein inh,Arbovirus inh,others
Cc1ccc(NC(=O)Cn2nc(-c3ccccc3Cl)ccc2=O)c(Br)c1,-3,-7%,nt,1.4,-3,
CC(=O)c1ccc(NC(=S)NCCc2ccc(S(N)(=O)=O)cc2)cc1,-12,-3%,nt,-4.5,2,
O=C(COC(=O)C1(c2ccccc2)CC1)NNC(=O)c1ccccc1F,8,nt,nt,-1.3,nt,
CC(C)N1CCc2c(sc(NC(=O)c3ccc4ccccc4c3)c2C(N)=O)C1,62,nt,nt,-2.5,nt,
COc1ccc([N+](=O)[O-])cc1NC(=O)COC(=O)/C=C/c1ccco1,2,-1%,-31,1.3,4,
Cn1c(=O)c2c(ncn2CC(=O)OCC(=O)c2ccc(Cl)cc2)n(C)c1=O,-1,nt,nt,-1.3,nt,
Cc1ccccc1Cn1c2ccccc2c2cnn(CC(=O)NCc3ccco3)c(=O)c21,-1,1%,nt,0.5,nt,
Cc1cc(C)nc(NC(=S)Nc2cccc(Cl)c2Cl)c1,1,6%,nt,nt,-5,
O=C(COC(=O)c1ccc(O)cc1O)Nc1ncc(Cl)cc1Cl,-7,nt,nt,-0.8,nt,
Cc1ccccc1-n1c(C)nnc1SCc1cc(=O)oc2ccc3ccccc3c12,7,3%,-30,3.7,11,
COc1ccc(S(=O)(=O)N(C)c2ccc(C(=O)N3CCC(C(N)=O)CC3)cc2)cc1,-8,-2%,-14,-1.4,5,
COc1ccc(NC(=O)CSc2c(C)n[nH]c2C)cc1,1,-4%,3,0.1,-7,
CCNC(=O)CC1C(=O)N(c2ccccc2)C(=O)N1CCOC (configuration not stated),5,nt,nt,-0.7,nt,
Cc1ccc(/C=C2\C(=O)NC(=O)N(CCc3ccc(F)cc3)C2=O)o1,-1,-8%,-14,-1.1,-3,
CC(C)(C)c1ccc(OC(=O)c2ccccc2)cc1,-2,2%,nt,1.0,nt,
COC(=O)c1ccc(N2CCN(c3ccccc3)CC2)nc1,-5,nt,nt,1.7,nt,
c1ccc(Oc2ccc(-c3ccnc4nc(N5CCN(c6ccccc6)CC5)nn34)cc2)cc1,94,21%,-2,-5.6,-31,
O=C(CSc1nnc2c(n1)[nH]c1ccccc12)Nc1ccc2c(c1)OCO2,?,-7%,-8,1.2,-17,
Cn1c2ccccc2c2cnn(CC(=O)NCCCN3CCN(c4ccccc4F)CC3)c(=O)c21,11,nt,nt,-1.0,nt,
CC(=O)c1ccc(NC(=S)N2C(C)CCCC2C)cc1 (configuration not stated),-12,-2%,-25,2.0,1,
Cc1cc(NC(=O)CSc2ccc(-c3ccc4c(c3)OCO4)nn2)no1,-1,-2%,nt,-0.5,-11,
C/C(CC(=O)Nc1ccc(Cl)c(Cl)c1)=N\NC(=O)Cc1ccccc1,69,?,-41,4.4,1,
COC(=O)c1ccc(CSc2nc3ccc(C)cc3[nH]2)o1,-2,1%,-16,0.1,-1,
CN1CCN(c2ccc(Cl)cc2NS(=O)(=O)c2ccccc2Cl)CC1,18,-7%,-27,-5.6,-14,
COc1ccc(C(=O)NNC(=O)c2ccc(S(=O)(=O)N3CCCCC3)cc2)cc1,2,-5%,nt,-2.0,7,

# Overlap with the part before: six compounds, followed by the next part.
SMILES,Mtb betalactam,Mtb H37Rv,YopH PTP inh,RecA intein inh,Arbovirus inh,others
CC(=O)c1ccc(NC(=S)N2C(C)CCCC2C)cc1 (configuration not stated),-12,-2%,-25,2.0,1,
Cc1cc(NC(=O)CSc2ccc(-c3ccc4c(c3)OCO4)nn2)no1,-1,-2%,nt,-0.5,-11,
C/C(CC(=O)Nc1ccc(Cl)c(Cl)c1)=N\NC(=O)Cc1ccccc1,69,?,-41,4.4,1,
COC(=O)c1ccc(CSc2nc3ccc(C)cc3[nH]2)o1,-2,1%,-16,0.1,-1,
CN1CCN(c2ccc(Cl)cc2NS(=O)(=O)c2ccccc2Cl)CC1,18,-7%,-27,-5.6,-14,
COc1ccc(C(=O)NNC(=O)c2ccc(S(=O)(=O)N3CCCCC3)cc2)cc1,2,-5%,nt,-2.0,7,
COCCOC(=O)c1c(C)n(C)c2ccc(OC(=O)c3cccs3)cc12,4,2%,-48,1.8,9,
CC(=O)Nc1ccc(OC(=O)c2ccc(Cl)cc2)cc1,0,9%,-30,4.6,-1,
COc1ccc(-c2nn(-c3ccccc3)cc2/C=N/N2C(=O)CSC2=S)cc1,1,-3%,-12,0.7,-32,
COC(=O)c1[nH]c(C)c(/C(O)=C2\C(=O)C(=O)N(CCN3CCOCC3)C2c2cccnc2)c1C (configuration not stated),0,-10%,-16,-0.3,17,
CC1CCCCN1S(=O)(=O)c1cccc(S(=O)(=O)N2CCOCC2)c1 (configuration not stated),-8,-7%,nt,1.2,nt,
Cc1nc(CSc2ccc(Cl)cc2)cc(N2CCOCC2)n1,-2,-3%,2,0.3,-2,
CC1=CC(C)(C)NC(=S)N1c1cccc2ccccc12,-13,5%,-6,0.7,14,
Cc1cccc(N2C(=O)C(Cl)=C(N3CCOCC3)C2=O)c1,?,18%,nt,87*,nt,
OCC[C@H]1C[C@@H](O)[C@H](O)[C@@]2(CCCCO2)O1,-5,-12%,nt,0.3,nt,
CC(=O)c1c(C)nc(-c2ccc3c(c2)OCO3)n1O,3,-4%,-14,-1.5,-5,
COCC(=O)Nc1ccc(C(N)=O)cc1,5,1%,-13,-0.8,2,Arbovirus inh repeat=0
NNC(=O)c1nc(-c2cccc(-n3cccc3)c2)no1,-5,-7%,nt,-0.4,nt,
CN(C)S(=O)(=O)c1ccc(NC(=O)COc2ncnc3sccc23)cc1,-1,1%,nt,-3.4,7,
COc1ccccc1NCC(=O)n1nc(C)cc1C,4,-4%,nt,-0.7,3,
COc1ccc(OCc2cc(C(=O)NC3CCc4ccccc43)no2)c(Cl)c1 (configuration not stated),-6,nt,nt,-0.4,nt,
O=C(c1cccc(N2CCCC2=O)c1)N1CCN(c2ccc(F)cc2)CC1,-1,nt,nt,-7.1,nt,
CC1CC(CCC(=O)NC(=S)Nc2ccc(S(N)(=O)=O)cc2)C(=O)O1 (configuration not stated),4,6%,nt,-0.1,21,
